Assay outcomes (PubChem BioAssay)
Env fusion inh – inhibitors of HIV-1 Env-driven cell-cell fusion, primary screen, HeLa-JRFL effector, CEM21 target cells, luciferase | AID 651610, 2012 | inhibition, % at 12.3 µM | 1.1% of 360,000 active;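 active = mean replicate inhibition score of at least 50 and every replicate individually at or above 50; inconclusive = only one of the two criteria met; inactive = mean below 50 and not all replicates reaching 50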;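 also: 0% = plate neutral controls and 100% = maraviroc near 300 nM; one replicate is shown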
PABP FP inh – PABP poly(A) RNA binding inhibitors, primary screen, biochemical, fluorescence polarization, uHTS; Polyadenylate-binding protein 1 (Homo sapiens), P11940; inhibition, % at 35 µM; 1% of 290,000 active; AID 2014, 2009;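 active = 50% or more with normal probe brightness, or confirmed in later tests; inconclusive = above 50% with abnormal brightness, or retests that disagree; inactive = below 50% or failed in later tests; about a fifth of its hits are not listed in these tables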;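 also: calls also rest on retests at 20 µM and on dose response follow-up; controls were probe without protein and protein plus probe with vehicle; some compounds called inactive have numbers as strong as hits; many hits fall short of the cut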
Target sequence (P11940 whole entry, looked up): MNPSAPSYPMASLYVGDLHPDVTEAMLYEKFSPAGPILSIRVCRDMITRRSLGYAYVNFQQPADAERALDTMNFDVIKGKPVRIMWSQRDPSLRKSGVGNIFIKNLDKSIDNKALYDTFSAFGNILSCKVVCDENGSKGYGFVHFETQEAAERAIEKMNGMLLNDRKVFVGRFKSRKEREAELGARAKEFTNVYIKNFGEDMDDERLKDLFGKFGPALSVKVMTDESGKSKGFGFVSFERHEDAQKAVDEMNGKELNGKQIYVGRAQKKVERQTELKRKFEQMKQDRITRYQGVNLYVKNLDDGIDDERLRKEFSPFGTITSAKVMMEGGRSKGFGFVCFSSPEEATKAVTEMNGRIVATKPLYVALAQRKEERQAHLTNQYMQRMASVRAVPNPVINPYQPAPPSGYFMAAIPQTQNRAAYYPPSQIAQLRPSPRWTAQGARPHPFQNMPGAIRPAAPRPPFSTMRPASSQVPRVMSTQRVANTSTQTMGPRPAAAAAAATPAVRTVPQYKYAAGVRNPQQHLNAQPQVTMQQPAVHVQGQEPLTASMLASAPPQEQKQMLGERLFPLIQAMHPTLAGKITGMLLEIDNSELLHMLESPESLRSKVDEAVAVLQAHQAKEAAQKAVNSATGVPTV
CSC inhib – cancer stem cell viability inhibitors, primary screen, luminescence; cancer stem cell-like cells viability; inhibition, % at 7.5 µM; AID 2717, 2010; 1.1% of 300,000 active;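 active = mean at 75% or more and at least half the replicates too; inconclusive = mean and replicates disagree; tested in HMLE shEcad cells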;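 also: 0% = median of negative and 100% = median of positive control wells; the first replicate is given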
eIF4H FP inh – human eIF4H binding inhibitors, primary screen, translation initiation inhibitor project, biochemical, uHTS, fluorescence polarization; Eukaryotic translation initiation factor 4H (Homo sapiens), Q15056; eIF4H fluorescence polarization binding assay; inhibition, % at 35 µM; 0.94% of 290,000 active;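 active = 50% or more with normal probe brightness, or confirmed in later tests; inconclusive = above 50% with abnormal brightness, or retests that disagree; inactive = below 50% or failed in later tests; about a fifth of its hits are not listed in these tables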;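 also: calls also rest on retests at 20 µM and on dose response follow-up; 0% = protein and probe with vehicle and 100% = probe without protein; strong numbers were not always called active; many hits fall short of the cut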
UUG fidelity – modulators of yeast start codon fidelity, primary screen, whole organism, S. cerevisiae, single point, plate reader | activity score, % at 18.7 µM | S. cerevisiae UUG-firefly luciferase reporter, luminescence/redox ratio | AID 602363, 2012 | 0.13% of 350,000 active;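 active = replicate mean at a twofold rise or more, about +100% in these data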;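 also: firefly luciferase made from a UUG start codon reports start codon fidelity; reporter light over untreated wells divided by growth signal over untreated wells; some hits fall short of that in this replicate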
Rce1 inh – yeast Rce1p protease inhibitors, primary screen, biochemical, fluorescence, cell-free homogeneous; CAAX prenyl protease 2 (Saccharomyces cerevisiae (strain ATCC 204508 / S288c)), Q03530; yeast membranes, quenched prenylated peptide cleavage fluorescence; calls only; 0.27% of 290,000 active;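 active = fall in fluorescence gain of 50% or more versus controls, with final raw signal at or below 3038400; inconclusive = same 50% fall but final raw signal above 3038400; inactive = fall in fluorescence gain under 50%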;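 also: plate controls were neutral control wells for no effect and wells lacking membranes for full effect; tested at 10 µM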
MT1-MMP act inh – blockers of MT1-MMP proenzyme processing, primary screen, HT1080 RFP-PRO-GFP cells, GFP/RFP fluorescence; AID 651647, 2012; GFP/RFP ratio fluorescence, overnight; percent of plate control window, DMSO zero; Matrix metalloproteinase-14 (Homo sapiens), P50281; 0.061% of 360,000 active; GFP/RFP ratio change, % at 20 µM;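 active = GFP/RFP ratio change of at least 30% with cell ATP level not reduced by more than half and red fluorescence within 50% of control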; also: strong numbers were not always called active
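Compound: 20 µM single dose, 1% DMSO / System: HT1080 RFP-PRO-GFP cells / Controls: DMSO and RFP-L50D-GFP cell wells / Read-out basis: GFP/RFP fluorescence ratio / Schedule: overnight compound exposure at 37 °C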
eIF4H FP inh retest – second read-out of eIF4H FP inh, no call of its own (marks repeat the call); inhibition, %; compound at 20 µM; confirmation average;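 mean of two retest wells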
PABP FP inh retest – further read-out of PABP FP inh, marked with its call; inhibition, %; compound at 20 µM; confirmation repeats;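 mean of two retest wells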
MT1-MMP act inh RFP – further read-out of MT1-MMP act inh, marked with its call; RFP signal change, %; measured here: RFP expression control read;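 0 = vehicle wells; hits needed this value within 50% of zero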
Active calls of the source: *; i = inactive; ? = inconclusive; · = not tested or not shown; & = joins results of further samples.

The first 3 entries as a preview:
SMILES | Env fusion inh | PABP FP inh | CSC inhib | eIF4H FP inh | UUG fidelity | Rce1 inh | MT1-MMP act inh | MT1-MMP act inh RFP | others
CCCCn1c(N)c(N(CC(C)C)C(=O)Cn2c(=O)cnc3ccccc32)c(=O)[nH]c1=O | -10 | · | -8 | · | · | i | -2 | 3
Cc1ccc(NC(=S)NCCCN2CCOCC2)cc1C | 1 | -1 | -3 | 6 | · | i | 4 | 0
Cc1cc(N2C(=O)C(O)=C(C(=O)c3ccc(C)o3)C2c2cccc(Oc3ccccc3)c2)no1 (stereo unspecified) | 1 | 3 | 6 | 3 | -1 | i | -3 | -3

The whole of this part, from the first entry:
SMILES | Env fusion inh | PABP FP inh | CSC inhib | eIF4H FP inh | UUG fidelity | Rce1 inh | MT1-MMP act inh | MT1-MMP act inh RFP | others
CCCCn1c(N)c(N(CC(C)C)C(=O)Cn2c(=O)cnc3ccccc32)c(=O)[nH]c1=O | -10 | · | -8 | · | · | i | -2 | 3
Cc1ccc(NC(=S)NCCCN2CCOCC2)cc1C | 1 | -1 | -3 | 6 | · | i | 4 | 0
Cc1cc(N2C(=O)C(O)=C(C(=O)c3ccc(C)o3)C2c2cccc(Oc3ccccc3)c2)no1 (stereo unspecified) | 1 | 3 | 6 | 3 | -1 | i | -3 | -3
CCOc1ccc(C(=O)C2CCN(C(=O)c3ccccc3C(=O)O)CC2)cc1 | -37 | 22 | -11 | -11 | -2 | i | -1 | 1
Cc1cc(C)n(C(=O)COc2ccc(Cl)cc2Cl)n1 | -18 | 0 | 6 | -7 | -9 | i | 1 | -2
C[C@H](CO)N1C[C@H](C)[C@@H](CN(C)S(=O)(=O)c2cn(C)cn2)Oc2ccc(NC(=O)C3CC3)cc2C1=O | -3 | · | -16 | · | -6&-13 | · | 0 | 3
O=C(/C=C/c1ccc(Cl)cc1)NCCCn1ccnc1 | · | -10 | -15 | 2 | 11 | i | 1 | 1
COCCCNC(=O)C1CC(=O)N(CCc2ccc(OC)c(OC)c2)C1 (stereo unspecified) | · | 0 | 11 | 30 | -10 | i | 11 | 10
CN(Cc1cccs1)C(=O)C1CC(=O)N(Cc2ccccc2)C1 (stereo unspecified) | -1 | · | -7 | · | · | i | -4 | -2
O=C(NCC1CCCO1)C1CCCN(S(=O)(=O)c2cc(Cl)ccc2Cl)C1 (stereo unspecified) | 6 | 7 | -1 | 1 | -7 | i | 7 | -1
O=C1CC(/C=C/c2ccco2)=Nc2ccccc2N1 | · | 113* | 1 | 95* | -7 | i | -7 | 2
CCOc1ccc(C2C(C(=O)c3ccc(C)o3)=C(O)C(=O)N2CCN2CCOCC2)cc1OC (stereo unspecified) | -36 | 20 | -8 | 3 | -11 | i | -2 | 2
CC1(C(=O)NS(=O)(=O)c2cccc(Cl)c2)CCN1C(=O)CCc1ccc(Cl)cc1Cl (stereo unspecified) | -18 | · | · | · | 8 | · | -3 | 5
O=C1CCCN2N=C(SCC(=O)Nc3cccc(Cl)c3)SC2=N1 | 29 | 10 | · | 11 | -14 | i | -6 | -22
CCC(=O)NCC(c1cccs1)N1CCOCC1 (stereo unspecified) | · | 17 | -8 | 6 | 10 | i | 12 | 0
COc1ccc(OC)c(S(=O)(=O)N2CCC(C(=O)NCCc3ccc(OC)c(OC)c3)CC2)c1 | · | 16 | 9 | -9 | 0 | i | 5 | 4
Cc1oc(C(C)(C)C)cc1C(=O)Nc1cccc(/C=C/C(=O)O)c1 | · | 5 | 2 | 1 | -15 | i | 10 | 0
O=C(NCc1ccncc1)c1cccc(S(=O)(=O)NCc2ccccc2)c1 | 17 | 62* | -19 | 13 | -6 | i | -1 | 1 | eIF4H FP inh retest=36;PABP FP inh retest=68*
COc1ccc(NC(=O)CN(C)C(=O)C2=COCCO2)cc1 | 26 | · | -21 | · | -3 | i | -1 | 2
O=C(NCCc1nc2ccccc2[nH]1)c1ccco1 | -85 | 6 | -12 | -3 | -4 | i | 3 | 5
Cc1c(C(=O)NCCSCc2ccccc2Cl)cccc1[N+](=O)[O-] | 43 | -5 | -6 | -3 | -4 | i | 7 | -3
O=C(Nc1ccc(Cl)c(C(F)(F)F)c1)c1ccco1 | -175 | 3 | 4 | -11 | -13 | · | -5 | -5
Cc1ccc(S(=O)(=O)NN=C2CC(C)(C)OC2(C)C)cc1 | -12 | · | · | · | -12 | · | 1 | 1
COc1ccc(S(=O)(=O)N2CCOC2CNC(=O)C(=O)NCc2ccccc2Cl)cc1 (stereo unspecified) | -3 | -6 | -1 | -1 | 0 | i | -1 | -3
CCc1ccc(C(C(=O)NCc2ccc(F)cc2)N(C(=O)c2csnn2)C2CC2)cc1 (stereo unspecified) | 15 | 1 | -12 | -4 | -10 | i | -4 | 1
O=C(NCc1ccccc1)C(c1ccc(O)cc1)N(C(=O)c1cnccn1)c1ccccc1 (stereo unspecified) | -1 | 0 | -6 | 0 | 9 | i | 3 | -1
Cc1ccnc(Nc2nc(-c3ccc(O)cc3O)cs2)c1 | -23 | 5 | ? | 6 | -5 | · | 3 | -5
COc1cc(CCC(=O)OCC(=O)N2CCc3ccccc32)cc(OC)c1OC | 17 | 7 | -10 | -14 | 3 | i | 0 | 0
O=C(Nc1cccc(O)c1)c1ccc(S(=O)(=O)N2CCCCCC2)cc1 | -6 | 5 | · | -11 | -12 | i | 5 | -4
COCc1nnc(N)s1 | · | -1 | -3 | -10 | -4 | i | 5 | 6
CCN1C(=O)N[C@@H](c2cccc(C(F)(F)F)c2)[C@H](C(=O)OC)[C@H]1C | 20 | · | 11 | · | -1 | i | 5 | 1
COc1ccc(CCNC(=O)CSc2ccc(-c3ccccc3)nn2)cc1OC | · | -3 | -17 | -3 | -25 | i | 4 | 2
N#Cc1ccccc1CN1C(=O)NC(Cc2c[nH]c3ccccc23)C1=O (stereo unspecified) | 5 | -11 | -1 | -4 | 588* | i | 0 | -1
CC1(C(=O)NS(=O)(=O)c2cccc(Cl)c2)CCN1C(=O)Cc1ccsc1 (stereo unspecified) | 19 | · | · | · | -10 | · | 2 | 6
Cc1ccsc1C(=O)OCC(=O)N1CC(=O)Nc2ccccc21 | -7 | -4 | -9 | 2 | -13 | i | 6 | 1
O=C1c2ccccc2C(=O)N1CCOc1ccccc1Br | -19 | -1 | -1 | -2 | -7 | i | 2 | 4
O=C(c1cn(-c2ccc(Cl)c(Cl)c2)nn1)C1CC1 | -16 | -3 | -11 | -8 | -21 | i | -1 | 3
CCCn1c(N2CCN(C(=O)/C=C/C(=O)O)CC2)nc2ccccc21 | 2 | 4 | 4 | -2 | 3 | i | -6 | -4
COc1cc(OC)cc(OCC(O)Cn2ccnc2)c1 (stereo unspecified) | · | -2 | -6 | -16 | · | i | -2 | -3
CCOC(=O)c1c(CSCc2ccccc2)oc2ccc(O)c(CN(C)C)c12 | 58* | 0 | 65 | -10 | -10 | i | -6 | -8
O=c1cc(COc2ccccc2[N+](=O)[O-])nc2sccn12 | 3 | 3 | -8 | 7 | · | i | · | ·
CCc1nnc(NC(=O)C2CCCN(S(=O)(=O)c3ccc(OC)cc3)C2)s1 (stereo unspecified) | 10 | -7 | 4 | 0 | -3 | i | -3 | -1
COc1cccc(OC)c1C(=O)OCC(=O)NCCNC(=O)COC(=O)c1c(OC)cccc1OC | 14 | · | · | · | -10 | · | -1 | 4
CCOC(=O)C(=CNc1nc2ccc(C(=O)OCC)cc2s1)C(=O)OCC | 2 | -5 | 4 | -11 | -13 | i | 2 | 2
CS(=O)c1ccccc1O (stereo unspecified) | -9 | 4 | -6 | 3 | 1 | i | -1 | 6
O=C(CCC(=O)N(CC(=O)NC1CCCCC1)Cc1ccccc1)Nc1nccs1 | 6 | 3 | -13 | -5 | -21 | i | -2 | -3
NC(=O)[C@H]1CC2(CC(c3cccc(NC(=O)[C@H]4CCC(=O)N4)c3)=NO2)CN1C(=O)c1ccccc1 (stereo partly specified) | -7 | 21 | -12 | 24 | 12 | i | 11 | 4
COc1ccc(NC(=O)c2ccc(-n3cnnn3)cc2)c([N+](=O)[O-])c1 | -22 | -13 | 19 | 2 | -8 | i | 6 | 4
O=C(c1cc([N+](=O)[O-])ccc1N1CCOCC1)N1CCOCC1 | 10 | -4 | -11 | 8 | -11 | i | · | ·
Cc1cc2cc(CN(CCN(C)C)C(=S)NCc3ccco3)c(=O)[nH]c2cc1C | -5 | 56 | 14 | 68 | · | i | -1 | 8 | eIF4H FP inh retest=-7;PABP FP inh retest=4
CCC(=NCCc1ccc(OC)c(OC)c1)c1ccccc1O | -11 | 14 | -6 | 8 | 1 | i | -4 | -4
C[C@H](NC(=O)c1nc[nH]c1C(=O)N[C@@H](C)C(=O)OCc1ccccc1)C(=O)OCc1ccccc1 | -19 | 15 | -7 | 6 | -9 | i | 1 | 1
COc1cccc(-n2c(N)cc(=O)nc2SCC(=O)Nc2cc(C)on2)c1 | · | -1 | -2 | -5 | 17 | i | -1 | 4
O=C(CN1CCN(S(=O)(=O)c2ccc(Cl)c(C(F)(F)F)c2)CC1)NC(=O)NC1CCCCC1 | -6 | · | · | · | -16 | · | 1 | -5
CC(C)C[C@H](NC(=O)c1nc[nH]c1C(=O)NCCCCCN)C(=O)OCc1ccccc1 | 6 | · | -4 | · | -3 | · | 1 | 1
Cc1cc(NS(=O)(=O)c2ccc(NC(=O)COc3ccccc3C(C)C)cc2)no1 | -5 | -2 | 3 | 5 | -12 | i | 3 | 4
CCOc1cc(S(=O)(=O)N2CCN(S(=O)(=O)CC)CC2)c(OCC)cc1-n1cnnn1 | 8 | 6 | 1 | 27 | -11 | i | -1 | -1
COc1ccc(N2C(=O)C(Cc3ccccc3)NC2=S)cc1 (stereo unspecified) | 2 | 21 | -10 | 8 | · | i | -2 | 1
Cc1ccc(OCc2cc(C(=O)NCc3cn4ccccc4n3)no2)cc1C | 2 | 0 | 8 | -19 | -14 | i | -46 | -31
CC(C)(C)c1ccc(S(=O)(=O)N2CCc3nc4ccccc4c(C(=O)O)c3C2)cc1 | 13 | 5 | 0 | -8 | -24 | i | -1 | 3
Next records.
SMILES | Env fusion inh | PABP FP inh | CSC inhib | eIF4H FP inh | UUG fidelity | Rce1 inh | MT1-MMP act inh | MT1-MMP act inh RFP | others
O=C(CN1CCc2ccccc2C1)N1CCN(S(=O)(=O)c2ccccc2)CC1 | -84 | 3 | -10 | -4 | 0 | i | 2 | -1
Cc1csc(NC(=O)NC2(C(F)(F)F)Oc3ccccc3O2)n1 | 34 | -4 | 37 | 1 | -12 | i | 2 | -9
COc1ccc(C(O)c2nc(-c3cc(F)cc(Cl)c3)cs2)cc1 (stereo unspecified) | 4 | · | · | · | -26 | · | -3 | -2
O=C(Cn1nnc(-c2ccccc2-n2cnnn2)n1)N1CCCCC1 | · | -1 | -13 | -2 | · | i | 7 | 6
